2A firefly = FMDV 2A StopGo reporter, firefly signal; HEK cells with a luciferase reporter of 2A StopGo recoding; Potency, µM (titrated, usually from 57.5 µM), without a hit: at the highest dose signal change, negative = less light; actives 0.23% (n = 120,000); AID 1745856; active = well fitted falling curve with a large enough effect; inconclusive = small, poorly fitted or top-dose-only effect; inactive = no such curve, though single readings can be large or run the other way; note: nearly all actives have a fitted effect of over 60% in size; overnight with compound
StopGo RLuc = FMDV 2A StopGo reporter, Renilla signal | HEK cells with a luciferase reporter of 2A StopGo recoding | Potency, µM (titrated, usually from 57.5 µM), without a hit: at the highest dose signal change, negative = less light | actives 0.32% (n = 120,000) | AID 1745857; active means well fitted falling curve with a large enough effect; inconclusive means small, poorly fitted or top-dose-only effect; inactive means no such curve, though single readings can be large or run the other way; note: nearly all actives have a fitted effect of over 55% in size; overnight with compound
Active calls of the source: *; u = inconclusive; & = joins results of further samples; [ ] = remark or other dose. % is set by controls: 0 for no effect and ±100 for the full control effect; potency is the fitted concentration of half-maximal effect.

Preview:
Second line of a record – 2A firefly | StopGo RLuc
1: Cc1ccc(-c2nc3cc(NC(=O)COc4ccc([N+](=O)[O-])cc4)ccc3o2)cc1C
    60%[activator] | 2%
2: CC(C)(C)c1ccc(C(=O)NCCN2CCCC2)cc1
    -6% | -9%

The whole of this part, from the first entry:
Second line of a record – 2A firefly | StopGo RLuc
1: Cc1ccc(-c2nc3cc(NC(=O)COc4ccc([N+](=O)[O-])cc4)ccc3o2)cc1C
    60%[activator] | 2%
2: CC(C)(C)c1ccc(C(=O)NCCN2CCCC2)cc1
    -6% | -9%
3: CCOC(=O)c1noc2ncn(CC(=O)Nc3cc(Cl)ccc3OC)c(=O)c12
    -13% | -10%
4: CC(C)c1ccc(CNCC(O)c2ccccc2)cc1 (stereo not given)
    0% | 38%[activator]
5: COC(=O)Cn1c(=O)c2c(nc(-n3nc(C)cc3C)n2Cc2cccc(C)c2)n(C)c1=O
    0% | -5%
6: Cn1cc(S(=O)(=O)N2CCCCCC2)cc1C(=O)NCc1ccc(Cl)cc1
    -2% | 37%[activator]
7: CCCSc1ncc(Cl)c(C(=O)Nc2nc3ccc(C)cc3s2)n1
    1% | 0%
8: CCCCOc1ccc(C(=O)NC(=S)NCCCO)cc1Br
    48%[activator] | -20%
9: CCOC(=O)c1cc(C)n(CC2CCC(C(=O)Nc3cccc(Cl)c3)CC2)c1C (stereo not given)
    -14% | -13%
10: O=C(COc1cc(O)c2c(=O)cc(-c3ccccc3)oc2c1)NCC(O)CO (stereo not given)
    22% | 0%
11: CCOc1ccc(NC(=O)Cn2cc(C(=O)c3ccc(C)cc3)c(=O)c3cc4c(cc32)OCCO4)cc1
    -11% | -12%
12: COc1ccc2oc(=O)c(-c3ccc(OCC(=O)N4CCN(C=O)CC4)cc3)cc2c1
    132%[activator] | 9%
13: CSC(=S)N/N=C1/CCc2ccccc21
    175%[activator] | 20%
14: CCCNC(=O)CSc1cc(C)c2cc(C)cc(C)c2n1
    4% | 2%
15: COc1ccccc1N(CC(=O)Nc1ccccc1C(F)(F)F)S(=O)(=O)c1ccc(C)cc1
    -1% | 145%[activator]
16: CC(C)(C)NC(=O)c1oc2ccccc2c1NC(=O)c1ccc(F)cc1
    -16% | -8%
17: OCc1cccc(Nc2nc(-c3ccsc3)nc3ccccc23)c1
    36%[activator] | 21%
18: Cc1ccc(-c2cc(C(=O)Nc3cc(F)ccc3F)c3ccccc3n2)o1
    10% | -5%
19: COc1ccc(-c2csc(Nc3ncccc3C)n2)cc1OC
    220%[activator] | 1%
20: CCCNc1nc2ccccc2nc1C(=O)Nc1cc(OC)ccc1OC
    -5% | -7%
21: CCc1ccccc1NC(=O)CSc1nc(-c2ccccc2)nc2cc(=O)[nH]n12
    13% | 13%
22: CNC(=O)C1CN(C(=O)c2nn(Cc3ccccc3)c(=O)c3ccccc23)c2ccccc2O1 (stereo not given)
    12% | 36%[activator]
23: O=C(OCC(c1ccccc1)c1ccccc1)c1cccnc1
    0% | 5%
24: COc1ccccc1CNC(=O)c1ccc2c(c1)nc(C)n2-c1cccc(C)c1
    15%&11% | 30%&48%
25: NCc1ccc(OCc2ccccc2)cc1
    205%[activator] | 18%
26: CCCn1nc(C(=O)Nc2nc3ccc(OCC)cc3s2)c2ccccc2c1=O
    30% | -6%
27: COc1ccc(Nc2nc3c(S(=O)(=O)c4ccccc4)nnn3c3ccc(Cl)cc23)cc1
    -17% | -9%
28: COc1cccc(OC)c1C(=O)OCC(=O)c1ccc(Cl)cc1Cl
    19% | 164%[activator]
29: COc1cccc(Nc2nc3ccccc3nc2NS(=O)(=O)c2cc(C)ccc2C)c1
    u | -17%
30: Cc1ccc(C(=O)OCc2ccc(C#N)cc2)cc1O
    0% | 3%

Exported in markdown: part of the list above.
| no. | Compound | 2A firefly | StopGo RLuc |
| --- | --- | --- | --- |
| 9 | CCOC(=O)c1cc(C)n(CC2CCC(C(=O)Nc3cccc(Cl)c3)CC2)c1C (stereo not given) | -14% | -13% |
| 10 | O=C(COc1cc(O)c2c(=O)cc(-c3ccccc3)oc2c1)NCC(O)CO (stereo not given) | 22% | 0% |
| 11 | CCOc1ccc(NC(=O)Cn2cc(C(=O)c3ccc(C)cc3)c(=O)c3cc4c(cc32)OCCO4)cc1 | -11% | -12% |
| 12 | COc1ccc2oc(=O)c(-c3ccc(OCC(=O)N4CCN(C=O)CC4)cc3)cc2c1 | 132%[activator] | 9% |
| 13 | CSC(=S)N/N=C1/CCc2ccccc21 | 175%[activator] | 20% |

The list continues.
Second line of a record – 2A firefly | StopGo RLuc
31: O=C(CN1CCCN(Cc2ccccc2Cl)S1(=O)=O)Nc1ccc2c(c1)OCCO2
    -14% | 36%[activator]
32: COc1cccc(Cn2nc(C(=O)O)c3ccccc3c2=O)c1
    36%[activator] | 10%
33: CCCOc1c(OC)cccc1C1CC(=O)Nc2c1c(C)nn2-c1ccc(Cl)nn1 (stereo not given)
    -21% | -7%
34: Cn1c(CN2CCN(c3ccc(NS(C)(=O)=O)cc3Cl)CC2)nc2ccccc21
    u | u
35: COc1ccc(CN2CCN(C(=O)c3cc4cc(C)ccc4nc3C)CC2)cc1
    u | u
36: COc1ccc(-c2cc3ccc(O)c(CN4CCC(C)CC4)c3oc2=O)cc1OC
    10% | -4%
37: O=C(Nc1ccc2c(c1)OCCCO2)C(Sc1ccccc1)c1ccccc1 (stereo not given)
    156%[activator] | 83%[activator]
38: CCCCCn1nc(C(=O)Nc2cccc(C(=O)OC)c2)c2ccccc2c1=O
    32%[activator] | 21%
39: CCOc1ccc(-n2cc(-c3ccccc3)c3c(NCCc4ccccc4)ncnc32)cc1
    3% | 21%
40: Cc1cccc(N(CC(=O)NCCc2ccccc2)S(=O)(=O)c2ccccc2)c1C
    -22% | 41%[activator]
41: Cc1cc(C)c(NC(=O)CSc2nc3nc(C)cc(C)n3n2)c(C)c1
    2% | -13%
42: O=C(Nc1ccccc1Br)c1cc2ccc(O)cc2oc1=O
    178%[activator] | -2%
43: Cc1nc(-c2ccc3c(c2)-c2ccccc2C3)cs1
    186%[activator] | 3%
44: COc1ccc(CNC(=O)c2csc(NC(C)C)n2)cc1
    0% | -5%
45: O=C(CCCCn1c(=O)c2ccccc2n(Cc2ccccc2Cl)c1=O)NCCc1ccccc1
    -12% | -2%
46: Cn1cc(C(=O)N2CCN(S(=O)(=O)c3cc(F)ccc3F)CC2)c2ccccc21
    -21% | 3%
47: CCCc1nc(SC)ncc1C(=O)N1CCN(c2ccc(Cl)cc2)CC1
    u | u
48: CCC(=O)Nc1ccc2oc(-c3ccc(Cl)cc3)nc2c1
    111%[activator] | -8%
49: Cc1c(F)c(N2CCNC(C)C2)cc2c1c(=O)c(C(=O)O)cn2C1CC1 (stereo not given)
    -2%[11.5 µM] | 7%
50: O=C(CSc1nc(-c2cccc(Cl)c2)nc2cc(=O)[nH]n12)Nc1ccccc1
    -3% | -17%
51: N#Cc1ccccc1COc1ccc2c(C(F)(F)F)cc(=O)oc2c1
    0% | 14%
52: COc1ccc(-c2nc(C(=O)N3CCN(c4ccc(C(C)=O)cc4)CC3)cs2)cc1OC
    u | u
53: CC(C)CNC(=O)CCNC(=O)c1ccc(C(C)(C)C)cc1
    18% | -12%[1.06 µM]
54: CCN(CC)c1ccc(NC(=O)c2cnn(-c3ccccc3)c2-n2cccc2)c(C)c1
    -9% | -14%
55: Cc1coc2c1c(C)cc1oc(=O)cc(C)c12
    1% | 59%[activator]
56: CC(C)=CC(=O)Nc1ccccc1Cc1ccccc1
    8% | u
57: C=CCC1(O)CCN(C)CC1C (stereo not given)
    13% | -4%
58: CCOc1ccc2oc(C(=O)OCC(=O)c3cccs3)c(C)c2c1
    78%[activator] | 13%
59: CN(Cc1ccccc1)C(=O)CCS(=O)(=O)c1ccc2c(c1)oc(=O)n2C
    -19% | -8%
60: Cc1ccc(NC(=O)Nc2nnc(N3CCCCC3)s2)c(C)c1
    -3% | -7%

Nos. 31 through 33 of the list above:
Second line of a record – 2A firefly | StopGo RLuc
31: O=C(CN1CCCN(Cc2ccccc2Cl)S1(=O)=O)Nc1ccc2c(c1)OCCO2
    -14% | 36%[activator]
32: COc1cccc(Cn2nc(C(=O)O)c3ccccc3c2=O)c1
    36%[activator] | 10%
33: CCCOc1c(OC)cccc1C1CC(=O)Nc2c1c(C)nn2-c1ccc(Cl)nn1 (stereo not given)
    -21% | -7%

Following part:
Second line of a record – 2A firefly | StopGo RLuc
61: COCCn1c(N2CCC(C(N)=O)CC2)nc2c1c(=O)n(C)c(=O)n2C
    25% | 18%
62: CCOc1ccc(CN(C(=O)c2cc(=O)c3cc(C)cc(C)c3o2)C2CCS(=O)(=O)C2)cc1 (stereo not given)
    -14% | 0%
63: CC(C)CCNC(=O)CSc1nc2ccccc2nc1Cc1ccccc1
    -12% | 15%
64: CNc1nc(-c2ccc(NC(C)=O)cc2F)cs1
    -5% | -17%
65: O=C(CSc1ncnc2sc3c(c12)CCC3)Nc1ccc(Cl)cn1
    5% | -4%
66: N#Cc1cccc(C(=O)NCCc2cccs2)c1
    0% | 13%
67: O=C(Nc1cccc(Cl)c1)c1nnc(SCC(=O)N2CCN(c3ccc(F)cc3)CC2)s1
    34%[activator] | -10%
68: CCN(CC)CCCNC(=O)c1ccc2c(c1)NC(=O)C(CS(=O)(=O)Cc1ccc(F)cc1Cl)N2 (stereo not given)
    -11% | -17%
69: CCCNC(=O)Cn1nc(-c2ccc(F)cc2)c2cnc3ccc(F)cc3c21
    18% | -13%
70: O=C(Cn1c(=O)n(Cc2ccccc2)c(=O)c2sc3ccccc3c21)Nc1ccccc1
    -9% | -9%
71: COc1ccccc1NC(=O)C1=C(C)Nc2nc(SCc3ccccc3Cl)nn2C1c1cccnc1 (stereo not given)
    -10% | -8%
72: CCOc1cc(C(=O)N2CCn3c4c(c5cc(C)ccc53)CCCC42)cc(OCC)c1OCC (stereo not given)
    -4% | -6%
73: COc1ccc(CNC(=O)c2ccc3nc(Cc4ccccc4F)oc3c2)c(OC)c1
    0% | 9%
74: CCCc1cc(=O)oc2c(C)c(OCC(=O)c3ccc(OC)cc3)ccc12
    17% | 3%
75: CC(=O)Nc1nnc(S(N)(=O)=O)s1
    -21% | -14%
76: COC(=O)c1cc(NC(=O)c2cc3c(-c4ccccc4F)nn(C)c3s2)cc(C(=O)OC)c1
    -13% | -12%
77: Cc1ccc(S(=O)(=O)c2nnn3c2nc(NC(C)c2ccccc2)c2sccc23)cc1 (stereo not given)
    0% | -13%
78: Cc1ccc(C(NC(=O)N2CCN(C)CC2)C(Cl)(Cl)Cl)cc1F (stereo not given)
    -12% | -25%
79: O=C(NC1CCCC1)c1cnn(-c2ccc(F)cc2F)c1C1CCNCC1
    10% | -9%
80: CN(C)S(=O)(=O)N1CCN(C(=O)Cc2cccc(F)c2)CC1
    -4% | -5%
81: Cc1c(-c2ccc(Br)cc2)c(=O)oc2ccc(OC(=O)N3CCOCC3)cc12
    -21% | -3%
82: Cc1cc(C)cc(-n2c(SCC(=O)NCc3ccco3)nc3c([nH]c4ccccc43)c2=O)c1
    12% | 15%
83: COc1ccc(-c2c(C)nn3c4c(cnc23)C(=O)CC(c2ccccc2)C4)cc1 (stereo not given)
    -21% | -7%
84: COc1ccc2c(c1)CC(C(=O)Nc1cc(Cl)ccc1C)CO2 (stereo not given)
    27% | -13%
85: C=Cc1ccc(Cn2c(C(=O)O)c(CNCCc3ccco3)c3ccc(C)cc32)cc1
    -4% | 45%[activator]
86: COc1cccc(N2C(=O)C(CC(=O)Nc3cccc(F)c3)N(C(C)C)C2=O)c1 (stereo not given)
    -1% | 20%
87: CCc1ccc(NCc2cc3ccc(OC)cc3n(CC(=O)Nc3cccc(Cl)c3C)c2=O)cc1
    2% | 4%
88: Cc1ccc(C)c(N2CCN(C(=O)Cn3cnc4sc(C)c(S(=O)(=O)N5CCN(c6ncccn6)CC5)c4c3=O)CC2)c1
    -23% | -11%
89: Cc1cc2ccccc2n1CC(=O)NCc1ccc(C(N)=O)cc1
    2% | -5%

Screening data deposited in PubChem BioAssay by National Center for Advancing Translational Sciences (NCATS).

A portion of the library. The share of hits here may be higher or lower than overall.
